# Compound activity as filed in PubChem.
# ClpP mod: qHTS Assay for Activators of ClpP. ATP-dependent Clp protease proteolytic subunit (Bacillus subtilis (strain 168)), P80244. Potency, µM (top dose mostly 57.5 µM), for the others: top-dose activity change, negative = active. 340,000 tested, 1.9% active. AID 651965, 2013. purified B. subtilis ClpP, FRET peptide cleavage, 20 min; active = well fitted falling curve with a large enough effect; inconclusive = small, poorly fitted or top-dose-only effect; inactive = no such curve, though single readings can be large or run the other way; further: potency means the concentration at half of the fitted maximal effect; the source files actives as falling curves though it sought activators and does not explain the sign; nearly all actives have a fitted effect of over 65% in size; many hits overshoot -100%
# Target sequence (P80244 whole entry, looked up): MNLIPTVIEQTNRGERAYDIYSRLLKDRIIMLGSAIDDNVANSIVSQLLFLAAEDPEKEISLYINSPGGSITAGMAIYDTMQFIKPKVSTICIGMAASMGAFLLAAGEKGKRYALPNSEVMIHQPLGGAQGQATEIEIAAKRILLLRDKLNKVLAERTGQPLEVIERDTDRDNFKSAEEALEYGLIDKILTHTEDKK
#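 ClpP 10 microg/mL final, pH 8 Tris/KCl buffer with BSA, glycerol, Tween-20; compound pinned in; FRET-FV substrate; RT 20 min; Ex320/Em430; ΔFRET vs ADEP 5.8 microM, DMSO, no enzyme.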
# TRPML1 ag: human mucolipin-1 channel agonism | TRPML1-expressing cells, Ca2+ dye fluorescence, FDSS; host cell line not named in the record; reference of the full effect not given here | Q9GZU1 | 410,000 tested, 0.12% active | activation, % (no concentration beside the values); in the data active = activation above about 50%; inconclusive = about 30% to 50%; inactive = below about 30%; further: 0% is about no effect; the text of the record puts the active cut at 80%
# Target sequence (Q9GZU1 whole entry, looked up): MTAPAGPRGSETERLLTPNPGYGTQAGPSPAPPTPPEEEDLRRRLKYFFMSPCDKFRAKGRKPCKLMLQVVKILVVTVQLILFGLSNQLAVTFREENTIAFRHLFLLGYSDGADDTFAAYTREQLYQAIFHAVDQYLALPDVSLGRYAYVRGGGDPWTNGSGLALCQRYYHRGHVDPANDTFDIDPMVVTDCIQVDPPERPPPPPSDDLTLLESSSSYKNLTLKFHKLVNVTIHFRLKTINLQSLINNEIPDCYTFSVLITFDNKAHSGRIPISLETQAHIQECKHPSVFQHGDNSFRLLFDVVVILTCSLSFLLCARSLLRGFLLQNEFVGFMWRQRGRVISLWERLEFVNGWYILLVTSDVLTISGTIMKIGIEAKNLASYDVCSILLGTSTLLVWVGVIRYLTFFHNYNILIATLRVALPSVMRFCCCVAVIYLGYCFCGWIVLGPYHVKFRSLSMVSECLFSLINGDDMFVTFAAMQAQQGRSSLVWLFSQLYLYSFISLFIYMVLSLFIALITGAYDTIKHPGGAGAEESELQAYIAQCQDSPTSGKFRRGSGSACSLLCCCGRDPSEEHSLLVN
#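 Tetracycline-induced TRPML1-DL cells are seeded and incubated overnight before loading with a no-wash Ca2+ dye and quencher. Agonist activity is taken from the 110 s fluorescence read following compound pin-transfer on an FDSS, before EC80 54-4 challenge.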
# gsp ag: agonists of gsp mutant (McCune-Albright syndrome) | gsp mutant cells, cAMP HTRF, 30 min; control for the full effect not named in the record | Potency, µM (highest dose often 76.9 µM), inactives show at the top dose activation (cAMP increase), actives largely listed as activators | 340,000 tested, 0.13% active | AID 624287; active = well fitted activation curve with a large enough effect; inconclusive = small, poorly fitted or top-dose-only effect, or another doubt; inactive = no such curve, though single readings can be large or run the other way; cell line not stated here;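 further: phosphodiesterase inhibitor Ro 20-1724 added with compounds to block cAMP breakdown; potency means the concentration at half of the fitted maximal effect; nearly all actives have a fitted effect of over 60% in size; about a fifth of the inactives were tested at one dose only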
#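 Cells in DMEM/10% FBS with G418 were pretreated with compounds in DMSO plus […] (300 uM stock) for 30 min at 37C. cAMP was measured by HTRF (cAMP-d2 plus anti-cAMP antibody-K) after 30 min at room temperature.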
# TRPML1 blocker: human mucolipin-1 channel inhibition | Q9GZU1 | TRPML1-inducible cells, Ca2+ dye fluorescence, FDSS; hits give low values; inhibition of EC80 agonist-evoked calcium signal | activity change, negative = inhibition, % (test concentration not listed) | 390,000 tested, 0.02% active | AID 624415; in the data active means activity change below about -50%; inconclusive means about -30% to -50%; inactive means above about -30%;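 further: stimulus is agonist 54-4 at its EC80 concentration; on the % scale 0 is the no-effect control and ±100 the full control effect; compound concentration not given in the record; the text of the record puts the active cut at -80%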
#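 Calcium fluorescence in TRPML1-DL cells induced overnight with Tet: a 110 s read after compound pin addition, then a 110 s antagonist read after challenge with 54-4 at 4 uM final (EC80).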
# gsp antagonist: gsp mutant antagonism; gsp-mutant cells, cAMP HTRF, 30 min; control for the full effect not named in the record; Potency, µM (highest dose often 76.9 µM), for inactives: at the highest dose activity change, negative = inhibition, actives largely listed as inhibitors; 340,000 tested, 0.4% active; AID 624288; active = falling curve of any shape with a large fitted effect; inconclusive = falling curve, mostly with a smaller effect; inactive = flat or rising curve; cell line not stated here;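 further: intracellular cAMP measured with PDE inhibitor Ro 20-1724 present during compound exposure; potency means the concentration at half of the fitted maximal effect; on the % scale 0 is the no-effect control and ±100 the full control effect; nearly all actives have a fitted effect of over 65% in size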
#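 G418-selected cells were plated in DMEM/10% FBS for 16-24 h at 37C, then treated with compounds plus the PDE inhibitor […] (300 uM solution added) for 30 min at 37C. Intracellular cAMP was measured by HTRF after 30 min lysis at room temperature.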
# Menin MLL FP FL: inhibitors of human menin-MLL interaction, wild-type MLL peptide; Fluorescence polarization, fluorescein-MLL peptide displacement from menin; FP activity change, % at 61.4 µM; 290,000 tested, under 10 active; inconclusive = falling polarisation curve, or a change in total fluorescence; inactive = total fluorescence flat and polarisation flat or rising; no compound was filed as active; the % refers to the polarisation; negative = inhibition;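 further: % of control where 0% means no effect; inhibitors lower the polarisation; unlabelled MLL peptide was the positive control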
# Active calls of the source: *; ? = inconclusive; . = not tested or not shown; [ ] = remark or other dose. Hits appear at their usual frequency. About 2.1% of those tested had a hit in this group.
SMILES,ClpP mod,TRPML1 ag,gsp ag,TRPML1 blocker,gsp antagonist,Menin MLL FP FL
O=C(Nc1ccc(F)c(Cl)c1)C1CC(=O)N(Cc2ccccc2)C1 (stereo not drawn),0.0%,0.9,-6.7%,4.8,-1.4%,.
Cc1c(OCC(=O)NC(Cc2ccc(Cl)cc2)C(=O)O)ccc2c3c(c(=O)oc12)CCCC3 (stereo not drawn),4.5%,.,.,.,-0.2%,4.8
O=C(C(Cc1ccccc1)N1C(=O)c2ccccc2C1=O)N1CCc2ccccc21 (stereo not drawn),-3.2%,1.2,-15.4%,6.1,-2.7%,7.6
COc1ccc(C=NNC(=S)NN=Cc2ccc(OC)c(OC)c2)cc1OC,.,-0.3,-32.2%[inhibitor],-14.5,-5.0%,.
COc1ccccc1C/C(N)=N/OC(=O)COc1ccccc1C,-0.4%,1.6,-51.0%[inhibitor],7.0,-0.6%,-1.8
Cc1cc(NC(=O)c2oc3ccccc3c2C)ccc1-n1cnnn1,-3.7%,3.6,-3.2%,0.4,-5.9%,2.9
O=C(CNC1CCCCC1)Nc1cccc([N+](=O)[O-])c1,.,1.8,0.8%,22.0,-4.9%,.
CCCc1cc(=O)n2c(C(=O)Nc3ccc(OCC)cc3)c(C(=O)Nc3ccc(C)cc3)sc2n1,-2.7%,-0.7,.,8.5,.,.
Oc1nc(-c2ccc(Cl)cc2)n2ccncc12,-2.5%,0.5,-21.0%,33.6,?,-0.6
COc1ccc(C(=O)Nc2c(N)nc(SCC(=O)N3CCCCCC3)[nH]c2=O)cc1OC,0.5%,0.1,-2.3%,18.3,7.2%,1.3
CCCC(=O)NC(Nc1cc(C(F)(F)F)ccc1Cl)C(Cl)(Cl)Cl (stereo not drawn),1.8%,2.3,4.6%,-4.5,?,-2.8
CCOC(=O)N1CCN(C(=O)c2ccc(C)c(S(=O)(=O)N3CCCCC3)c2)CC1,-1.6%,0.9,?,-20.6,-4.2%,2.1
COCC1CCCCN1C(=O)c1ccc2oc(CCCc3ccccc3)nc2c1 (stereo not drawn),-0.7%,1.8,-36.8%[inhibitor],-7.8,-24.6%,-2.8
O=C(Cn1ncc2c3ccccc3n(Cc3ccc(F)cc3)c2c1=O)NCCCN1CCCCC1,?,0.9,.,2.1,.,.
CC(=O)NCCc1nc2cc(NC(=O)c3ccccc3Cl)ccc2n1C,-2.1%,0.2,0.1%,0.4,-8.2%,2.5
Cn1c(NC(=O)Cc2cccc3ccccc23)cc(=O)n(C)c1=O,1.6%,-0.7,-43.4%[inhibitor],-9.7,-2.0%,-0.1
CC(C)(C)C(=O)/C=c1\[nH]c(=O)/c(=C\c2ccccc2F)s1,.,1.2,-8.9%,10.7,-16.8%,8.8
Cn1c(=O)c(C(=O)NCc2ccc(Cl)cc2)c(O)c2ccccc21,-6.4%,1.9,-6.2%[15.4 µM],24.1,6.1%,-0.4
COCCCNC(=O)CCn1c(=O)c2ccccc2n(CC(=O)Nc2cc(Cl)ccc2C)c1=O,-17.4%,-0.2,13.0%,16.1,2.5%,2.9
O=C1c2ccccc2NC(c2cccc(O)c2)N1c1ccccc1 (stereo not drawn),.,0.9,7.6%[15.4 µM],9.8,5.0%,-1.3
CCOC(=O)Nc1ccc(NC(=O)OCC)cc1,0.2%,0.0,?,-6.2,5.2%,-0.3
Cc1ccc(NS(=O)(=O)c2ccc3c(c2)NC(=O)CCS3)c(C)c1,1.7%,-0.7,23.5%,6.7,4.6%,.
CCc1cccc2c(C(=O)CSc3nnc(-c4ccncc4)n3C)c[nH]c12,.,-0.8,16.3%,9.9,4.1%,-0.4
CC(C)CC1COC(=O)N1 (stereo not drawn),2.7%,-0.4,20.7%,10.4,6.7%,-1.6
COC(=O)C(Cc1cnc(Cl)s1)(C(=O)OC)c1ccc(C(F)(F)F)cc1[N+](=O)[O-],1.8%,0.2,-33.2%[inhibitor],6.6,?,-0.7
O=C(NCCc1nnc2ccc(NCC3CCCO3)nn12)c1ccccc1 (stereo not drawn),.,0.0,-0.6%[15.4 µM],11.1,10.7%,-3.6
O=C1Nc2cccc3c2N(CCC3)C2=C1CCC2,0.8%,-0.2,-6.5%,-6.7,.,.
Cc1c(NC(=O)CSc2cccc3cccnc23)c(=O)n(-c2ccccc2)n1C,-7.1%,-0.3,?,13.8,9.7%,0.5
N#CC1=C2SCN(Cc3ccccc3)CN2C(=O)CC1c1ccccc1F (stereo not drawn),-14.0%,2.3,?,0.8,0.5%,6.5
CN(c1cc(=O)n2ccccc2n1)C1CCCCC1,-5.5%,1.7,-13.9%,-2.8,3.5%,-0.7
CCC1CCCCN1CC(=O)Nc1cc(C)c2c(=O)oc3ccccc3c2n1 (stereo not drawn),-5.4%,-0.6,.,-23.0,.,.
Cn1nnnc1SCC(=O)Nc1ccc2c(c1)OCCO2,-1.0%,3.0,4.6%,2.9,7.9%,-0.8
CCc1nc2sc3ccccc3c(=O)c2c(=O)n1Cc1ccc(OC)cc1,.,0.3,4.3%[15.4 µM],19.5,-21.7%,11.6
COc1ccc(C(=O)COC(=O)CNC(=O)c2ccc(OC)cc2)cc1,.,0.4,24.3%[15.4 µM],-1.5,.,0.1
CC(C)CC1C(=O)N(Cc2cn(CCC3OCCCO3)nn2)CCS(=O)(=O)N1Cc1ccc(-c2cccc(N(C)C)c2)cc1 (stereo not drawn),-22.5%,-0.3,-4.9%,-2.9,.,.
O=C(NCCCn1ccnc1)C(=O)NCC1OCCN1S(=O)(=O)c1ccc(Br)cc1 (stereo not drawn),.,-0.4,-6.5%,13.2,-2.4%,-3.6

# Continued, overlapping the part above by 2 compounds.
SMILES,ClpP mod,TRPML1 ag,gsp ag,TRPML1 blocker,gsp antagonist,Menin MLL FP FL
CC(C)CC1C(=O)N(Cc2cn(CCC3OCCCO3)nn2)CCS(=O)(=O)N1Cc1ccc(-c2cccc(N(C)C)c2)cc1 (stereo not drawn),-22.5%,-0.3,-4.9%,-2.9,.,.
O=C(NCCCn1ccnc1)C(=O)NCC1OCCN1S(=O)(=O)c1ccc(Br)cc1 (stereo not drawn),.,-0.4,-6.5%,13.2,-2.4%,-3.6
COc1ccccc1-c1csc(C(O)c2ccccc2)n1 (stereo not drawn),-0.3%,-0.6,.,-4.3,.,.
NC(=O)CN1CCN(CCN2C(=O)c3cccc4cccc(c34)C2=O)CC1,-23.3%,-0.8,?,58.0,17.0%,2.1
O=C(Nc1ccc2c(c1)C(=O)NC2=O)c1ccccc1Cl,4.4%,-1.4,-4.3%,-11.6,0.8%,-2.8
COc1ccc(N2CCN(c3ncnc4c3nnn4C)CC2)cc1,-18.1%,0.3,.,-4.4,.,.
O=C(COC(=O)c1cccc(NS(=O)(=O)c2ccc(F)c(F)c2)c1)NC(=O)NC1CCCC1,-7.4%,1.1,-25.4%,6.6,?,1.1
O=C(Oc1cccc(NC(=O)c2ccccc2Cl)c1)c1ccc([N+](=O)[O-])cc1,1.0%,-0.5,-27.9%,-3.8,-1.5%,-1.8
COC(=O)c1ccccc1NC(=O)C1CCCN(S(C)(=O)=O)C1 (stereo not drawn),-20.1%,-0.4,10.8%,-12.1,12.0%,3.3
O=C(COC(=O)c1c(F)cccc1F)NCc1cccs1,.,-0.3,17.3%,-8.9,7.9%,.
COc1ccc(-c2[nH]c(-c3ccc4c(c3)OCO4)nc2-c2ccccc2)cc1,2.51µM*,-1.1,0.7%,-12.5,?,-0.4
Cc1ccc(Oc2nc(-c3ccccn3)nc3ccccc23)cc1,.,0.3,20.2%[15.4 µM],-17.9,-6.8%,0.9
NCCCCC(N)c1cn([C@@H](CCC(=O)O)C(=O)N2CCNCC2)nn1 (stereo partly drawn),1.5%,-0.5,.,-3.3,4.4%,.
CCOC(=O)C1(Cc2ccccc2)CCN(Cc2cccc3nccnc23)CC1,.,0.4,-11.4%,23.5,2.0%,-1.2
CCCCc1n[nH]c2c1/C(=N/O)CC(c1ccccc1)C2 (stereo not drawn),17.8µM*,0.5,?,14.7,2.7%,4.6
O=C(CCn1c(=O)c2sccc2n(Cc2ccc(F)cc2)c1=O)NCc1ccc2c(c1)OCO2,-2.6%,-0.4,.,-5.9,.,.
CCOc1ccc(OCCCCn2cnc3ccccc3c2=O)cc1,.,0.2,2.5%,8.0,-5.0%,-2.8
CCc1ccc(C2C(C#N)=C(N)Oc3n[nH]c(CC(=O)OC)c32)cc1 (stereo not drawn),0.2%,-0.5,3.0%,2.1,-6.1%,2.6
O=C(Cc1ccccc1)NCCc1c[nH]c2ccccc12,-1.0%,0.9,16.6%[15.4 µM],9.1,2.9%,-1.5
O=C(Cc1ccccc1)Nc1ccc(C(=O)O)cc1,-1.6%,0.9,-2.0%,20.9,7.9%,0.8
COc1cc(NC(=O)Cn2cnc(C(=O)Nc3ccc(C)c(C)c3)n2)cc(OC)c1OC,4.0%,-1.3,.,0.7,5.7%,.
CC(C)c1cccc(C(C)C)c1NC(=O)COC(=O)[C@H](C)NC(N)=O,.,0.1,24.0%[15.4 µM],-4.8,5.7%,0.2
Cc1ccc(C(=O)NCCc2cccs2)cc1,-1.0%,2.6,?,-11.4,4.8%,-2.1
CCCc1cc(=O)[nH]c(SCC(=O)c2ccc3c(c2)OCCO3)n1,1.4%,1.5,-18.0%,-6.9,-21.9%,-0.8
CC(=O)Nc1cc(C(=O)NCc2ccco2)ccc1Sc1ccc(C)cc1,-8.0%,-0.1,-4.8%,8.1,-4.4%,4.9
CC(=O)c1c(C)[nH]c(C(=O)Nc2ccc(Cl)cc2F)c1C,.,-0.1,-5.0%,-5.3,2.1%,-0.3
Cc1ccc(-c2ccc(=O)n(CC(=O)NCCc3ccc(Cl)cc3)n2)cc1,-15.5%,-0.3,.,-15.8,.,.
Cc1nn(C(=O)CNS(=O)(=O)c2ccccc2)c(C)c1Sc1ccc(Cl)cc1,0.3%,-0.1,-4.6%,5.8,-31.7%,-1.0
COc1ccc(CNC(=O)Cc2c(C)c3ccc(O)cc3oc2=O)cc1,3.9%,0.4,.,9.5,.,.
CCC(CO)Nc1ccc(-c2n[nH]c(=O)c3ccccc23)cc1[N+](=O)[O-] (stereo not drawn),1.0%,0.8,16.4%,-18.1,17.4%,-3.5
O=C(COc1ccc(Br)cc1)N/N=C1\SCC(=O)N1c1ccc(F)cc1,-9.5%,-0.3,6.5%,-16.2,1.5%,-0.3
O=C(C[C@@H]1C/C=C\CCCC(=O)OC[C@@H](c2ccccc2)NC1=O)NCCO,-3.8%,-0.6,.,2.9,7.0%,.
